D2 PAM: human D2 receptor positive allosteric modulation; DiscoveRx D2 beta-arrestin cells, luminescence, 90 min; 100% = 57 uM dopamine signal; potentiation, % (concentration not given with the values); 0.23% of 360,000 active; AID 624464; active = potentiation of 50% or more; inconclusive = 30% to 50%; inactive = 30% or less;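 further: compound concentration not given in the record; tested on top of an EC20 dose of dopamine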
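D2 cells co-treated with compound plus 50 nM dopamine (EC20) for 90 min at 37 deg C to detect potentiation. Beta-arrestin recruitment was read as enzyme-fragment luminescence after 1 h at ambient temperature. Full response was set by 57 uM dopamine.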
D2 agonist: human D2 receptor agonism in beta-arrestin assay. activation, % (no concentration beside the values). DiscoveRx PathHunter D2 beta-arrestin, luminescence, 90 min; 100% = 57 uM dopamine signal. 0.084% of 360,000 active; in the data active = activation above about 40%; inconclusive = about 15% to 40%; inactive = below about 15%; further: compound concentration not given in the record; the text of the record calls up to 30% inactive
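Agonist mode: compounds alone added to overnight-plated D2 PathHunter cells for 90 min at 37 C, with 57 uM final dopamine (EC100) defining full response. Beta-arrestin recruitment detected by chemiluminescent reagent, read after 1 h at ambient temperature.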
Six1-Eya2 blk: Six1/Eya2 interaction inhibition; Q15475+O00167; AlphaScreen GST-Six1/His-Eya2 binding, biochemical; hits give low values; control for the full effect not named in the record; activity change, % (concentration not given with the values); 0.56% of 360,000 active; AID 651725; in the data active = activity change below about -65%; inconclusive = about -30% to -65%; inactive = above about -30%; further: on the % scale 0 is the no-effect control and ±100 the full control effect
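GST-Six1 + His-Eya2 (5X stock: 250/500 nM); Tris pH 8.0, 300 mM NaCl, 0.05% BSA, 0.02% Tween 20; GSH donor/Ni acceptor beads; 1 h 37 °C dark; AlphaScreen readout.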
TRPML1 agonist: human mucolipin-1 channel agonism; Q9GZU1; TRPML1-expressing cells, Ca2+ dye fluorescence, FDSS; host cell line not named in the record; reference of the full effect not given here; activation, % (no concentration beside the values); 0.12% of 410,000 active; AID 624414; in the data active = activation above about 50%; inconclusive = about 30% to 50%; inactive = below about 30%; further: 0% is about no effect; the text of the record puts the active cut at 80%
Target sequence (Q9GZU1 whole entry, looked up): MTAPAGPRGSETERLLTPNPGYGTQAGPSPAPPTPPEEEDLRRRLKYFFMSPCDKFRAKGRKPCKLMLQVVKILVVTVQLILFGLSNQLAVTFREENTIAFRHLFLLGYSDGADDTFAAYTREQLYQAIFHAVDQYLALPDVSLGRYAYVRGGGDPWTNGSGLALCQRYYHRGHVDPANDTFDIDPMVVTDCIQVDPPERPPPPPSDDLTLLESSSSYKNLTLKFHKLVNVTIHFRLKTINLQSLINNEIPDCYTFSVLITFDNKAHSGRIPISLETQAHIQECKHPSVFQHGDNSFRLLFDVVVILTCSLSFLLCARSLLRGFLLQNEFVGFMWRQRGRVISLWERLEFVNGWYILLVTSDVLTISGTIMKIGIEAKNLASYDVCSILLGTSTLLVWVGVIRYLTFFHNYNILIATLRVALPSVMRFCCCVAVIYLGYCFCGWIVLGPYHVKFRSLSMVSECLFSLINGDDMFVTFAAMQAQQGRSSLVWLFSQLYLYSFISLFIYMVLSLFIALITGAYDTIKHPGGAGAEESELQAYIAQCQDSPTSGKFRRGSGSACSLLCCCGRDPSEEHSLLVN
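Tet-induced TRPML1-DL cells, 1,500 per well, cultured overnight, were loaded with a no-wash Ca2+ dye for 45–90 min. Calcium fluorescence was recorded on the FDSS for 110 s after compound addition, before the EC80 agonist (4 uM 54-4) was added.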
TRPML1 blocker: human mucolipin-1 channel inhibition; activity change, negative = inhibition, % (test concentration not listed); AID 624415; Q9GZU1; 0.02% of 390,000 active; TRPML1-inducible cells, Ca2+ dye fluorescence, FDSS; hits give low values; inhibition of EC80 agonist-evoked calcium signal; in the data active means activity change below about -50%; inconclusive means about -30% to -50%; inactive means above about -30%;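 further: stimulus is agonist 54-4 at its EC80 concentration; on the % scale 0 is the no-effect control and ±100 the full control effect; compound concentration not given in the record; the text of the record puts the active cut at -80%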
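Tet-induced TRPML1-DL cells loaded with Ca8 no-wash calcium dye were read kinetically on FDSS. Compound addition was followed by EC80 agonist 54-4 (4 uM final); inhibition was read over 110 s.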
PINK1 modulator: modulators of PINK1 expression | PINK1 immunofluorescence, high-content cytometry, 24 h | Potency, µM (doses to about 76.6 µM), inactives show at the top dose activation (PINK1 increase), usual class: activators | 0.2% of 410,000 active; active = well fitted activation curve with a large enough effect; inconclusive = small, poorly fitted or top-dose-only effect; inactive = flat fitted curve, though single readings scatter; cell line not stated here;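 further: potency means the concentration at half of the fitted maximal effect; % of control where 0% means no effect; nearly all actives have a fitted effect of over 65% in size; a mitochondrial uncoupler was the plate control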
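Decision-based qHTS: stable cells, 24 h exposure to five compound concentrations, CCCP as control. Fixed cells stained for PINK1 plus nuclear, mitochondrial and cell markers, cytometer read.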
Numbers without * were called inactive; ? = inconclusive; / = no result given; & = joins results of further samples; [ ] = remark or other dose.

SMILES	D2 PAM	D2 agonist	Six1-Eya2 blk	TRPML1 agonist	TRPML1 blocker	PINK1 modulator
CCN(CC)C(=O)CC(c1cc(OC)c(OC)c(OC)c1)c1c(OC)cc(OC)c2ccc(=O)oc12 (stereo unspecified)	-8	-0.7	-1	1.2&-0.3	-7&-11	-0.2%
Cc1cc(Br)cn2c(Cc3ccccc3)c(C3CCCCC3)nc12	/	/	1	-0.3	/	11%
COc1cc(COCC(O)CN2CCN(Cc3ccc4c(c3)OCO4)CC2)cc(OC)c1OC (stereo unspecified)	-14	-3.8	13	0.4	-13	-1.1%
Cc1ccc(NC(=O)c2cc(=O)[nH]c3ccc(S(=O)(=O)N4CCOCC4)cc23)cc1	-3	-2.3	8	-0.5	-19	-0.7%
CCc1c(C)sc(NC(=O)c2cccs2)c1C#N	-12	-1.5	-6	-0.6	35	-1.0%
Cn1c(SCC(=O)Nc2ccc3c(c2)OCCO3)nnc1-c1ccccn1	3	0.1	-2	-0.8	5	3.6%[38.3 µM]
O=C(NCCc1ccccc1)C1CCCN(S(=O)(=O)c2cnc[nH]2)C1 (stereo unspecified)	-8	-1.3	0	-0.4	6	2.6%
CC1CCN(C(=O)CSc2ccc(-c3cccnc3)nn2)CC1	9	-5.5	1	0.3	37	0.2%
COc1ccc(-c2csc(N(CC3CCCO3)C(=O)c3ccc(C)cc3)n2)cc1 (stereo unspecified)	-2	-5.2	-10	0.1	10	4.5%[38.3 µM]
O=C(COC(=O)CNC(=O)c1ccccc1Cl)NC1CCCC1	-3	-1.0	10	1.7	18	3.2%
CC(CNC(=O)c1ccc2nc(CCc3ccccc3)oc2c1)c1ccccc1 (stereo unspecified)	/	/	/	-0.1	-4	1.0%
CC1=C/C(=N\NC(=O)c2cccs2)CC(C)(C)C1	-4	0.9	4	3.2	2	4.4%
CCN(CC(=O)Nc1ccc(NC(C)=O)cc1)C(=O)c1ccccc1CCc1ccccc1	-17	-3.8	-1	-0.6	0	5.1%
COc1ccc(-c2oc3ccccc3c2C(=O)OCc2ccccc2)cc1	-13	-2.1	48	1.7	5	1.3%
C#CCOCCOCCOCCNc1nc(N2CCN(C(=O)[C@H](CO)n3cc([C@@H](N)C(C)C)nn3)CC2)nc(N2CCN(C(=O)[C@H](CCCCN)n3cc([C@@H](N)[C@H](C)CC)nn3)CC2)n1	-5	-2.6	-7	-0.8	-7	-0.3%
O=C(NCC1CC1)Nc1cccc(Cl)c1	-14	-2.2	2	-0.3	15	4.1%
COc1ccccc1OCC(=O)Nc1c(C(=O)c2ccc(C)cc2)oc2ccccc12	/	/	/	1.1	-4	1.1%
CCOC(=O)C1CCCc2c1[nH]c1c(C(=O)O)cccc21 (stereo unspecified)	-2	1.6	-3	0.0	4	/
COc1ccc(C2c3ccc(O)cc3Oc3ncn(CCN4CCOCC4)c(=N)c32)cc1OC (stereo unspecified)	-6	1.1	-6	-0.5	15	1.8%
CCCCC1(O)CC(C(F)(F)F)=NN1C(=O)COc1ccccc1 (stereo unspecified)	-2	2.8	4	1.6	3	/
O=C(CSc1nnnn1C1CCCCC1)Nc1nc2c(s1)CCCC2	-6	1.5	0	2.9	14	6.9%
CCC(C(=O)OC)n1cnc2c(cnn2-c2ccc(F)cc2)c1=O (stereo unspecified)	/	/	/	1.0	12	0.8%
CCOc1cc(N2CCOCC2)c(OCC)cc1NC(=O)CSc1nc(N)cc(=O)[nH]1	1	-1.8	0	0.2	25	-1.2%
CC1CCCCC1NC(=O)COC(=O)c1ccc(N(C)C)cc1 (stereo unspecified)	-1	0.0	-1	-0.8	-6	-0.3%
Cc1ccc(-c2csc(N3CCN(c4cc5c(cc4Cl)nc(C)n5CCN4CCCCC4)CC3)n2)cc1	-15	-3.0	-22	0.3	-8	2.2%
CCCn1c(C)cc(C(=O)COc2ccc(S(=O)(=O)N(CC)CC)cc2[N+](=O)[O-])c1C	3	-5.0	-23	-0.7	-10	1.0%
Cc1cc(=O)oc2c(C)c(OCC(=O)NC3CCN(Cc4ccccc4)CC3)ccc12	-20	-0.6	-9	-0.7	-4	1.4%
O=C(CN1CCc2cc3c(cc2C1)OCCCO3)Nc1cccc([N+](=O)[O-])c1	-35	1.0	-11	-0.6	-9	3.1%
COc1cc(CNC2CCCCCCC2)cc(Cl)c1OCC(N)=O	-6	-5.9	0	0.5	-5	-0.8%
CCOC(=O)C1=C(CN(CC)Cc2ccccc2)NC(=O)NC1c1ccc(OC(C)C)cc1 (stereo unspecified)	/	/	/	0.0	28	?
Cc1cc(C(=O)N(C)Cc2ccc(Br)cc2)no1	0	-0.6	1	1.3	-17	3.7%
c1ccc2oc(NC3=NCN(CC4CCCO4)CN3)nc2c1 (stereo unspecified)	1	-1.3	-1	0.1	-21	1.0%
C=C[C@@H]1c2ccccc2N(S(=O)(=O)c2ccc(C)cc2)[C@H](c2ccc(C(F)(F)F)cc2)C1(C#N)C#N	-7	-1.6	-3	25&21	-11	2.9%
COc1ccccc1CNC(=O)[C@H](C)N1C(=O)N2CCc3c([nH]c4ccccc34)[C@@]2(C)C1=O	-39	-4.8	-11	/	/	0.3%
O=C(COC(=O)Cc1c[nH]c2ccccc12)Nc1ccccc1C(F)(F)F	-6	1.3	0	0.9	-10	-0.8%
O=c1[nH]c(SCc2ccccc2[N+](=O)[O-])nc2nc[nH]c12	-8	-5.0	-19	-0.3	-7	1.3%
Cc1ccc(C2NC(=S)N3C(c4ccc(C)cc4)NC(=S)N23)cc1 (stereo unspecified)	-23	-4.5	-5	0.1	1	1.9%
CCc1nnc(SCC(=O)Nc2ccc(F)cc2)o1	-12	-2.3	4	0.7	50	-0.7%
CCOc1ccc(NC(=O)COc2coc(CN3CCc4ccccc4C3)cc2=O)cc1	3	3.3	9	2.0	32	11%
O=C(COC(=O)/C=C/c1ccccc1)NC(=O)NC1CCCCC1	1	1.0	-1	0.6	-4	1.8%
CC(C)C(=O)Nc1ccc(NC(=O)CCc2ccccc2)cn1	5	0.7	10	0.0	13	-0.2%
COc1ccc(N(CC(=O)NCc2ccccc2)S(C)(=O)=O)cc1	-9	-5.5	-4	0.8	-17	-1.7%
COc1ccc2cc3c(N)nn(C(=O)c4cccc([N+](=O)[O-])c4)c3nc2c1	-9	2.6	1	-0.4	7	0.8%
CCn1c(CN2CCCCC2)nc2cc(NC(=O)COc3ccccc3C(C)(C)C)ccc21	/	/	/	0.6	10	4.2%
O=C(CSc1n[nH]c(-c2cccs2)n1)N1CCN(S(=O)(=O)c2ccc3ccccc3c2)CC1	-5	-1.3	-17	-0.1	-1	0.0%
O=C(NCCc1ccccc1)c1ccc(NCC2CCCO2)c([N+](=O)[O-])c1 (stereo unspecified)	-6	-1.8	-5	1.1	24	3.9%
CC(C)C[C@@H](CO)N1CCN(CCc2ccccc2)CCC1=O	-4	-1.8	0	-0.3&-0.1	-12	1.1%
Cc1c(CNC(=O)c2cnn3c2NC(c2ccc(Br)cc2)CC3C(F)(F)F)cnn1C (stereo unspecified)	2	-2.0	-8	-0.8	-2	1.0%
Cc1ccnc(NC(=O)C2CCCN(c3ncnc4c3nc3n4CCCCC3)C2)c1 (stereo unspecified)	-2	0.9	3	1.4	-1	-0.8%
CCOc1ccc(CNCc2ccc(C(=O)O)cc2)cc1OC	-26	-0.4	-5	0.4	-2	-0.9%

Going on with the list.
SMILES	D2 PAM	D2 agonist	Six1-Eya2 blk	TRPML1 agonist	TRPML1 blocker	PINK1 modulator
CCCN1C(=O)/C(=C\C=C2/C=CN(CC)c3ccccc32)SC1=S	11	-5.5	-28	-1.9	-20	12%
O=c1cnnc(SCCc2ccccc2)[nH]1	-4	-0.9	6	-0.9	23	0.9%
CCN(C(=O)Cn1ncc2c(=O)oc3ccccc3c21)c1ccccc1F	/	/	/	0.2	8	1.2%
O=C(N/N=C/c1ccccc1)c1ccc(N2CCCC2=O)cc1	-2	-2.1	-7	-0.5	0	2.6%
CC(C)CCC(C(=O)O)C(C)CC(=O)Nc1ccn(-c2ccccc2)n1 (stereo unspecified)	-6	-1.4	2	-0.1	33	-0.7%
CC(Sc1nc(N)cc(=O)[nH]1)C(=O)NNC(=O)c1cccc(Cl)c1 (stereo unspecified)	-3	4.1	0	2.1	1	0.3%
COc1cccc(CNC(=O)C(C)n2nc(C)n3c(cc4occc43)c2=O)c1 (stereo unspecified)	-7	-7.6	1	-1.0	-6	-1.3%
CCCS(=O)(=O)N1CCN(Cc2ccc([N+](=O)[O-])cc2)CC1	-9	-2.6	5	1.2	-14	-0.9%
CCOc1ccc(NC(=O)CC2C(=O)N(CC)C(=S)N2NC(=O)c2ccncc2)cc1 (stereo unspecified)	-2	-1.5	-9	-0.7	-5	0.4%
CC(=O)c1c(C)nc(-c2ccccc2)n1O	-13	-4.4	-3	0.1	11	4.9%[38.3 µM]
N#C/C(=C(/O)CSc1ccccc1C(=O)O)c1nc2ccccc2s1	-6	-0.7	7	-0.8	2	-3.5%
O=C(O)C(=Cc1cccc([N+](=O)[O-])c1)c1ccc(Cl)cc1	-9	-0.6	3	1.3	8	-0.5%
O=C(Cn1c(=O)c2c(ncn2C2CCCC2)n(Cc2ccccc2)c1=O)N1CCc2ccccc21	-9	-3.9	-6	1.1	2	1.0%
COc1cc(OC)cc(-c2nnc(NC(=O)CCS(=O)(=O)c3ccccc3)o2)c1	1	4.3	-24	0.4	-4	-0.3%
COc1cc(OC)c(-c2cc(C(=O)O)ccc2OC)c(OC)c1	-9	0.5	0	0.0	-4	1.6%

Screening results (PubChem)
